Source: PubChem
YopH PTP inh = inhibitors of Yersinia enterocolitica YopH tyrosine phosphatase | inhibition, %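 (about 10 µM by stock and volumes)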 | fluorescence Ex485/Em525 | 140,000 compounds, 0.16% hits | AID 898;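 active = inhibition of 50% or more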;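 note: controls were vehicle for no effect and minimum signal wells for full effect; inactives centre near -20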
Arbovirus inh = blocks arbovirus infection | arbovirus infection cell-based antiviral screen | 200,000 compounds, 0.37% hits | inhibition, % at 10 µM;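 active = inhibition from about 30%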;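 note: bluetongue infection of BSR cells; cell survival read as ATP light after 72 h; 0% = infected wells without compound and 100% = uninfected wells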
Mtb bLac sens = beta-lactam sensitization of Mtb H37Rv. M. tuberculosis H37Rv growth with meropenem, percent inhibition; hits of this screen are not shown here. 330,000 compounds, 0.27% hits. inhibition, % at 25 µM;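 active = about 74% or more and at least 40 points above the plate without the antibiotic, then above 30% in a dose series; inconclusive = first-round hits that could not be retested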;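 note: growth measured after seven days incubation then overnight dye step; 0% = bacteria only wells and 100% = bacteria with antibiotic; twin plates without the antibiotic show which effects depend on it; some results filed as inactive read as strong as hits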
RecA splice inh = Mtb RecA intein splicing inhibition. inhibition, %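 (about 9 µM by stock and volumes)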. AID 2221. cell-free RecA intein splicing, fluorescence. 290,000 compounds, 0.75% hits; in the data active = inhibition above about 30%; inconclusive = no clear call, values can overlap the other calls;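 note: 0% = vehicle wells and 100% = reference inhibitor control wells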
Target sequence (P9WHJ3 whole entry, looked up, canonical isoform): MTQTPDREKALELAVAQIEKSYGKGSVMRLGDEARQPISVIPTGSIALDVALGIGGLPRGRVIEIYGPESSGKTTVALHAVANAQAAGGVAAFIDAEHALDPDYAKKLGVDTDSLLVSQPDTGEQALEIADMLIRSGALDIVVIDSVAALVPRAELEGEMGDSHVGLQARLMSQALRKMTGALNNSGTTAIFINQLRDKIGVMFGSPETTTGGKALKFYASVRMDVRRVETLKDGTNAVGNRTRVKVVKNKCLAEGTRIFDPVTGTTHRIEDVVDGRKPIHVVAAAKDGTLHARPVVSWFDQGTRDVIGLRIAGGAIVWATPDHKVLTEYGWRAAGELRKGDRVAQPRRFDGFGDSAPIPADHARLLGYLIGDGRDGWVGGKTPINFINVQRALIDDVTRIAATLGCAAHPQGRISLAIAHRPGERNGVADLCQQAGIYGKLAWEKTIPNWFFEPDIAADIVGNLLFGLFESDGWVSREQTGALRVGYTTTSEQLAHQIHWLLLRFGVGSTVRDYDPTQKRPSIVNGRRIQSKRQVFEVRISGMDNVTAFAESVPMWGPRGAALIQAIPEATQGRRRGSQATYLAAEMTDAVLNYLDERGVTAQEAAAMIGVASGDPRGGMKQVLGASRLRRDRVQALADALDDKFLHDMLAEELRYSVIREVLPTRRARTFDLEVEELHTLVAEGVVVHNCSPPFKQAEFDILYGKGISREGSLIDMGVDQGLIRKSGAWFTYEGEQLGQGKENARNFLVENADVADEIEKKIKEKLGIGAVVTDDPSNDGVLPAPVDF
Mtb H37Rv = M. tuberculosis H37Rv growth inhibitors, H37Rv strain (AID 1626). M. tuberculosis H37Rv growth inhibition; higher % means a stronger effect. one-dose inhibition, % at 10 µM; IC50 in µM for titrated hits. 220,000 compounds, 0.95% hits;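 active = confirmed in a dose series; inconclusive = inhibition above 80% but not taken into the dose series; inactive = below 80% or under 30% at every dose of the series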;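 note: bacteria incubated seven days before Alamar blue readout; 0% = bacteria only wells and 100% = bacteria with antibiotic wells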
Arbovirus inh repeat = further read-out of Arbovirus inh, marked with its call; inhibition, %; measured here: 10K subset replicate screen; many hits read low in the repeat;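 first of two repeat runs on a subset; 0% = infected and 100% = uninfected wells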
* marks the source's active call; other numbers are inactive results; ? = inconclusive; . = not tested or not shown. These rows are one share of the data (hit frequency here may not be typical).

The opening 6 entries, ahead of the listing:
SMILES	YopH PTP inh	Arbovirus inh	Mtb bLac sens	RecA splice inh	Mtb H37Rv	others
CC(=O)c1cc2c(cc1NC(=O)CCNC(=O)c1ccccc1Cl)OCO2	-12	3	22	-1.8	-9%
O=C(C1CCC(CNS(=O)(=O)c2cccs2)CC1)N1CCN(c2ccc(Cl)cc2)CC1 (stereo not given)	.	.	2	-1.1	.
O=C(Cn1c(=O)n(Cc2ccccc2)c(=O)c2cc(Cl)ccc21)NCC1CCCO1 (stereo not given)	.	.	-8	-1.4	.
NC(=O)CC(c1ccccc1)c1ccco1 (stereo not given)	-10	-1	3	1.1	1%
CCC/C(O)=C1\C(=O)CCCC1=NC(C)C(=O)O (stereo not given)	-34	0	5	.	-6%
CN(C)CCN=Cc1c(O)n(-c2cccc(C(F)(F)F)c2)c(=O)[nH]c1=O	-33	7	3	1.2	-7%

This part in full, from the start:
SMILES	YopH PTP inh	Arbovirus inh	Mtb bLac sens	RecA splice inh	Mtb H37Rv	others
CC(=O)c1cc2c(cc1NC(=O)CCNC(=O)c1ccccc1Cl)OCO2	-12	3	22	-1.8	-9%
O=C(C1CCC(CNS(=O)(=O)c2cccs2)CC1)N1CCN(c2ccc(Cl)cc2)CC1 (stereo not given)	.	.	2	-1.1	.
O=C(Cn1c(=O)n(Cc2ccccc2)c(=O)c2cc(Cl)ccc21)NCC1CCCO1 (stereo not given)	.	.	-8	-1.4	.
NC(=O)CC(c1ccccc1)c1ccco1 (stereo not given)	-10	-1	3	1.1	1%
CCC/C(O)=C1\C(=O)CCCC1=NC(C)C(=O)O (stereo not given)	-34	0	5	.	-6%
CN(C)CCN=Cc1c(O)n(-c2cccc(C(F)(F)F)c2)c(=O)[nH]c1=O	-33	7	3	1.2	-7%
O=C(c1cnc2n(c1=O)CCS2)N(c1ccccc1)C1CCCCC1	-32	2	2	-2.7	5%
COc1cc(CNCCO)ccc1OCCc1ccccc1	.	.	1	1.3	.
COc1ccc2cc(C3CC(c4cccs4)=NN3C(C)=O)c(Cl)nc2c1 (stereo not given)	.	.	-4	0.4	-1%
O/N=C\c1ccc2noc(-c3ccc(Cl)cc3)c2c1	.	.	5	1.1	.
CCS(=O)(=O)c1ccc(-c2cccc(NC(=O)c3ccc(Br)o3)c2)nn1	.	.	-11	-4.4	.
C(=C\c1ccccc1)/CN1CCN(c2ncnc3c2oc2ccccc23)CC1	-23	16	.	12	8%	Arbovirus inh repeat=-9
O=P(Nc1c(Cl)cccc1Cl)(c1ccccc1)c1nc2c(s1)CCCC2 (stereo not given)	-9	-4	-2	1.6	-11%
CP(=O)(O)CCCN	-39	0	5	-1.7	11%
CC1(C)C(C=C(Cl)Cl)C1C(=O)NC(O)C(=O)c1ccccc1 (stereo not given)	.	.	6	1.1	.
Cc1cc(C)c2nc(N(CCN(C)C)C(=O)c3ccc(S(=O)(=O)N(C)CC4CCCO4)cc3)sc2c1 (stereo not given)	.	.	-5	1.2	.
Cc1cc(/C=N/N2CCN(C)CC2)c(C)n1-c1ccccc1F	.	2	7	-0.5	6%
O=C(NCCOC(=O)c1c(F)cccc1Cl)c1c(F)cccc1Cl	.	.	8	1.9	.
CCCn1c(N)c(N(CCOC)C(=O)c2cccc(F)c2)c(=O)[nH]c1=O	.	.	0	-0.4	.
CN(Cc1ccc(F)cc1)Cc1nc(CCc2ccccc2)no1	.	-4	-11	0.4	0%
Cc1cc(S(=O)(=O)N2CCCCC2CCNC(=O)C(=O)NC2CC2)ccc1F (stereo not given)	.	.	1	-0.8	.
CCNC(=O)[C@@H]1CCCN1C(=O)[C@H](CCCN=C(N)N)NC(=O)[C@H](CC(C)C)NC(=O)[C@@H](CC(C)C)NC(=O)[C@H](Cc1ccc(O)cc1)NC(=O)[C@H](CO)NC(=O)[C@H](Cc1c[nH]c2ccccc12)NC(=O)[C@H](Cc1cnc[nH]1)NC(=O)[C@@H]1CCC(=O)N1	.	.	.	3.7	-1%
N#C/C(=N\Nc1ccccc1[N+](=O)[O-])C(=N)N1CCCCC1	.	17	4	1.2	-3%
CCCC(=O)Nc1sc2c(c1C(=O)OCC)CC(C)(C)OC2	.	-11	-3	1.2	-3%
CSc1nnc(C)c(=O)n1COC(=O)c1cc(Cl)ccc1[N+](=O)[O-]	.	3	3	-0.2	5%
CCc1nc(SCC(=O)Nc2nnc(CC)s2)c2c(C)c(C)sc2n1	-4	4	7	-0.3	0%
Cc1ccccc1OCC(O)CN1CCN(C)CC1 (stereo not given)	.	-1	-7	-0.5	2%
NC(=O)CSc1nnc(-c2ccc(S(=O)(=O)N3CCOCC3)cc2)n1Cc1ccccc1	-41	6	-16	-1.5	-6%
O=C(CSCC(=O)OCC(=O)c1ccc(Br)cc1)Nc1ccc(Br)cc1	-30	5	-3	2.0	-6%
CC(C)(C)n1nc2c(c1NC(=O)c1ccc(S(=O)(=O)N3CCCC3)cc1)CS(=O)C2 (stereo not given)	-10	-6	-10	-0.3	-5%
COc1ccccc1C(=O)Nc1nc(-c2cccs2)c(NC(C)=O)s1	-15	-3	3	-3.7	1%
CC(=O)Cn1nnc2sc(-c3ccccc3)cc2c1=O	.	4	-2	.	-14%
O=[N+]([O-])c1ccccc1OCCN1CCOCC1	.	.	-4	0.9	.
Cc1nc2c(C)cccn2c(=O)c1NC(=O)c1ccc(Br)o1	.	.	0	-2.0	.
O=C(COc1ccc2c3c(c(=O)oc2c1)CCCC3)NCC(O)c1ccccc1 (stereo not given)	.	.	2	-0.1	.
COc1ccc(C2=NN(C(=O)CSc3nc(=O)n4ccc(C)cc4n3)C(c3ccc(C)cc3)C2)cc1 (stereo not given)	.	.	-12	1.4	.
Cc1ccc(-c2nc(C=Nc3cccc(C)c3)c(O)o2)cc1	.	4	5	2.8	1%
O/C(=C\Sc1nnc(Cc2ccccc2)o1)c1ccc(Br)cc1	-7	-2	10	0.9	5%
CCN1CCN(c2ccc(S(=O)(=O)N3CCOCC3)cc2NC(=O)CCC(C)C)CC1	.	.	-2	-1.9	.
Cc1ccc(CN2C(=O)CCC2C(=O)NCCCN2CCCCC2C)cc1 (stereo not given)	-26	2	-8	-0.3	-9%
CN(C1CCCCC1)S(=O)(=O)c1cccc2nsnc12	.	.	3	-0.5	.
CCCCN(C(=O)c1ccc(Cl)cc1)C1CC2CCC(C1)N2C (stereo not given)	-12	-10	-4	-5.9	-3%	Arbovirus inh repeat=-9
CCOC(=O)c1ccc(-c2ccc(C=O)o2)cc1	.	.	.	0.9	7%
O=C(CN1CCN(C(=O)N2CCCCC2)CC1)Nc1ccc(F)cc1	0	9	2	1.7	-5%
NS(=O)(=O)c1ccc(-n2nncc2C23CC4CC(CC(C4)C2)C3)cc1	-49	-6	1	1.0	2%
O=C(CCc1nnc(-c2ccccc2)o1)NCC1CCN(C2CCCC2)CC1	.	4	-11	-1.6	3%
Cc1ccc(S(=O)(=O)N2CCN(C(=O)CSc3ccc(Cl)cc3)CC2)cc1	.	.	-1	4.6	.
COc1ccc(CCNC(=O)c2cc(Cl)nc3ccccc23)cc1	.	.	-3	-1.4	.
COc1ccc(Nc2nccc(OC)c2C#N)cc1	-26	4	2	-1.4	-3%
COc1cccc(C(=O)COc2ccccc2N2C(=O)C3C4C=CC(C4)C3C2=O)c1 (stereo not given)	-21	1	-1	0.7	-1%
Cc1ccc(Nc2c([N+](=O)[O-])ccc3nonc23)cc1C	.	.	8	0.5	.
Cc1ccc2cc(CN(Cc3cccs3)Cc3nnnn3CC3CCCO3)c(=O)[nH]c2c1C (stereo not given)	-36	-17	.	0.3	5%
CCN1CCN(CC(=O)Nc2nc3ccc(OC)cc3s2)CC1	-10	-2	-1	-1.2	.
Cc1cc(N2C(=O)C3CCCN3C2c2cccc(Cl)c2)no1 (stereo not given)	-14	-1	-2	1.6	-9%
Cc1ccc(CNC(=O)CSc2ncn[nH]2)cc1	.	.	1	-1.6	.
Cc1ccc(-c2csc3nc(SCC(=O)Nc4ccc(Cl)c(C(=O)O)c4)[nH]c(=O)c23)cc1	.	.	-1	5.9	.
Cc1cccc(OCCCCc2c(C)n[nH]c2C)c1	70*	10	100	5.7	11µM*
COCCn1c(SCC(=O)Nc2cc(C)nn2-c2ccccc2)nnc1-c1ccncc1	-24	1	-3	-0.4	-12%
O=C(NCc1ccco1)c1cccc(S(=O)(=O)N2CCN(Cc3ccccc3)CC2)c1	.	.	-1	-0.9	.
O=C(CCn1cnnn1)NC1CCCN(Cc2ccccc2F)C1 (stereo not given)	.	.	-14	0.6	.

2 neighbouring compounds from above:
SMILES	YopH PTP inh	Arbovirus inh	Mtb bLac sens	RecA splice inh	Mtb H37Rv	others
O=C(NCc1ccco1)c1cccc(S(=O)(=O)N2CCN(Cc3ccccc3)CC2)c1	.	.	-1	-0.9	.
O=C(CCn1cnnn1)NC1CCCN(Cc2ccccc2F)C1 (stereo not given)	.	.	-14	0.6	.

Next part
SMILES	YopH PTP inh	Arbovirus inh	Mtb bLac sens	RecA splice inh	Mtb H37Rv	others
COC(=O)CC1C(C(=O)OC)ON2OC(C(=O)OC)C(C(=O)OC)C12 (stereo not given)	-25	5	2	.	-2%
CN(C)S(=O)(=O)c1cccc(NC(=S)N/N=C/c2cccc(O)c2)c1	.	1	5	-0.4	-6%
CCOC(=O)c1[nH]c2ccc(OC)cc2c1N=CN(C)C	-37	8	-2	-4.9	4%
O=C(Nc1ccc(S(=O)(=O)Nc2nccc(C3Cc4ccccc4C(=O)O3)n2)cc1)c1ccccc1 (stereo not given)	-31	1	8	-0.5	-4%
c1ccc(-c2nnc3n2N=C(c2ccc4c(c2)OCO4)CS3)nc1	-10	-11	33	0.6	-6%
CCc1ccc(-c2csc3ncn(CC(=O)NCc4ccco4)c(=O)c23)cc1	.	.	27	2.2	5%
N/C(=N\c1nc(CSc2ccc(Cl)cc2)cc(=O)[nH]1)Nc1ccccc1C(F)(F)F	.	-5	-2	-1.9	-4%
Cc1ccc(CN(C)C2CCN(C)CC2)cc1	.	.	-2	-2.0	.
CCN(CC)CCCn1c(=S)[nH]c2cc(Cl)ccc2c1=O	0	-6	?	-0.1	-8%
O=C(O)c1cccc(Oc2cccc(Cl)n2)c1	.	3	3	-0.2	-7%
Cc1cc(NC(=O)CCCn2nc([N+](=O)[O-])c(Cl)c2C)no1	.	1	-3	-1.1	1%
S=c1[nH]nc(COc2ccccc2)n1/N=C/c1ccc(Cl)cc1Cl	.	.	7	-0.3	.
Cc1ccc(N2CC(C(=O)Nc3ncc([N+](=O)[O-])s3)CC2=O)cc1 (stereo not given)	.	.	100	12	.
Cn1cnnc1SCC(=O)NN(c1ccccc1)c1ccccc1	-27	-4	-5	.	-1%
O=C(O)c1ccccc1C(=O)Nn1cnnc1	.	.	-2	-0.4	.
Cc1cccc(N2CCN(C3=NC(=O)/C(=C\c4cn[nH]c4-c4ccccc4)S3)CC2)c1	-22	-7	-3	2.5	-4%
COc1ccc2cc(C(=O)C3CCCN(Cc4ccccn4)C3)ccc2c1 (stereo not given)	.	5	87	-0.3	?
O=C(CCCN1C(=O)c2ccccc2C1=O)NCCN1C(=O)S/C(=C\c2cccs2)C1=O	-9	2	-11	3.0	-2%
O=C(O)c1cccc(S(=O)(=O)Nc2cc(Cl)ccc2Cl)c1	.	.	1	0.8	-10%
CCC(=O)Nc1ccc2c(c1)nc1n2CCN(CCOC)C1	.	.	1	-2.8	.
Clc1ncccc1-c1nnn(-c2ccccc2)n1	.	0	-3	2.3	20%
CC(=O)SC(C[N+](=O)[O-])c1cn(C(C)=O)c2ccccc12 (stereo not given)	-11	-30	87	12	5%
O=C(/C=C/c1cccs1)Nc1ccc(N2CCOCC2)c(S(=O)(=O)Nc2ccccc2Cl)c1	-21	-11	9	6.7	7%
CN1C(C(=O)NCc2ccc(OC(F)(F)F)cc2)CC2Cn3c(nc4cc(Cl)c(Cl)cc43)C21 (stereo not given)	.	.	100	6.2	31%
C=CCN(Cc1ccc(OC)c(OC)c1)C(=O)c1cc2cc(F)ccc2[nH]1	.	.	5	1.2	.
Cc1cccc(N2CCN(C(=O)/C=C/c3cccs3)CC2C)c1 (stereo not given)	.	0	97	0.6	23µM*
Cc1ccc(Cn2ccnc2SCC(=O)NC2CCCC2)cc1	.	.	-2	2.8	.
COc1ccc(C(=O)Oc2cc(C)[nH]c(=O)c2[N+](=O)[O-])c(OC)c1	.	.	2	-7.6	.
CCc1ccccc1N(CC(=O)NC(C)C)C(=O)CCC(=O)Nc1nccs1	.	.	0	-1.5	.
CCCOc1cccc(CN2CCCCC2c2cccnc2)c1 (stereo not given)	-11	6	0	-2.0	-10%
COc1cc(C2C3=C(CC(C)(C)CC3=O)OC(N)=C2[N+](=O)[O-])ccc1O (stereo not given)	-11	5	4	-5.5	5%
COc1ccc(-c2nc3c(n2O)CCc2c-3no[n+]2[O-])cc1	.	.	-7	-3.3	5%
